MbtI inh = MbtI salicylate synthase inhibitors, primary screen, biochemical, fluorescence intensity. inhibition, %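 (about 17 µg/mL by stock and volumes)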. purified MbtI enzyme, fluorescence intensity read-out. actives 0.89% (n = 100,000). P9WFX0. AID 493033, 2011;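 active = above 50% in both replicates, above 80% if mildly self-fluorescent; inactive = the rest, strongly fluorescent compounds included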;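 also: 0% = mean of negative and 100% = mean of positive controls; one replicate is shown; some compounds called inactive have numbers as strong as hits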
PV pol inh = poliovirus RdRp elongation inhibitors, primary screen, biochemical, fluorescence polarization, total intensity; Genome polyprotein (Poliovirus type 1 (strain Mahoney)), P03300; poliovirus polymerase elongation; hits give low values; AID 588519, 2011; actives 0.66% (n = 150,000); % elongation, % (compound at 16.7 µg/mL); in the data active = % elongation below about 90%; also: some results filed as inactive read as strong as hits
Target sequence (P03300 1749-2209 limits assumed): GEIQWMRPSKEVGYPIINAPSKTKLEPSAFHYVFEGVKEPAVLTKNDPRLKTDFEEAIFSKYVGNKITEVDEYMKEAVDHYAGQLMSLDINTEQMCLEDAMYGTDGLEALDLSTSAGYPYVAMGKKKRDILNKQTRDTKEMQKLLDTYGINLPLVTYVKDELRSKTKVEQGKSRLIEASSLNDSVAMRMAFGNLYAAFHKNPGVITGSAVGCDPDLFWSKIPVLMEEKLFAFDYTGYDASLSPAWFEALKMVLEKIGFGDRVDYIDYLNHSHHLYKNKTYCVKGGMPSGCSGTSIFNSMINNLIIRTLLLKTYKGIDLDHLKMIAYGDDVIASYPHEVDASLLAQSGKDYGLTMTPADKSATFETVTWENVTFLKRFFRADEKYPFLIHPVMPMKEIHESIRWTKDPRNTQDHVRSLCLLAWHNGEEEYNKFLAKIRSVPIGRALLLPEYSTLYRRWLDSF
MenB inh = M. tuberculosis MenB inhibitors, primary screen, biochemical, absorbance. AID 540299, 2011. inhibition, %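 (about 12 µg/mL by stock and volumes)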. actives 0.43% (n = 100,000). MenB enzyme assay, absorbance read-out; some hits fall short of the stated cut. 1,4-dihydroxy-2-naphthoyl-CoA synthase (Mycobacterium tuberculosis (strain ATCC 25618 / …;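 active = mean of two replicates above 30%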;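 also: 0% = no compound and 100% = wells with inactive enzyme; the first replicate is given; strong numbers were not always called active; inactives centre near -10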
Target sequence (P9WNP5 whole entry, looked up): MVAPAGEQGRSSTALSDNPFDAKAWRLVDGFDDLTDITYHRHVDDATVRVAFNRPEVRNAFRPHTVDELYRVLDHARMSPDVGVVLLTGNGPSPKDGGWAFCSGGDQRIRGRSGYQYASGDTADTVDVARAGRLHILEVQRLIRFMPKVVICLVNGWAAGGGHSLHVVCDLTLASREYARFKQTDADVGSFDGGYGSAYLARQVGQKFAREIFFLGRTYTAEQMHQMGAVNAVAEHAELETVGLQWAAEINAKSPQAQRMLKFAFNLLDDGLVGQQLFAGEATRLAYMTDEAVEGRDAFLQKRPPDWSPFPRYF
PV pol inh intensity = also measured in PV pol inh; calls as there; % elongation; measured here: total intensity read-out; formula for this scale not given here;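 total fluorescence in place of polarization; lower means less elongation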
* marks the source's active call; other numbers are inactive results; x = not tested or not shown; & = joins results of further samples.

SMILES | MbtI inh | PV pol inh | PV pol inh intensity | MenB inh
O=C(CN1c2ccccc2-c2ccccc2S1(=O)=O)N1CCCCC1 | 4.6 | 103.0 | 101.0 | -19.6
CC(C)N(C(=O)CSc1nncn1C)c1ccccc1 | 0.9 | 104.0 | 103.0 | x
CC(C)c1ccc(OC(=O)C(C)N2C(=O)c3ccccc3C2=O)cc1 (configuration not stated) | x | 107.0 | 108.0 | -27.0
O=C1Nc2ccc(Br)cc2C1Cc1ccco1 (configuration not stated) | 28.0 | 102.0 | 109.0 | -7.8
COc1cccc(NC(=O)N2CCNCC2)c1 | -5.7 | 100.0 | 102.0 | 4.8
CCOC(=O)c1[nH]cnc1C(=O)Nc1ccccc1 | -10.7 | 104.0 | 108.0 | x
CC1C/C(=C/c2cccs2)C(=O)/C(=C/c2cccs2)C1 (configuration not stated) | 11.2 | 102.0 | 101.0 | -35.0
N#Cc1sc2c(c1OC(=O)c1cccs1)c(=O)n(-c1ccccc1)c(=S)n2-c1ccccc1 | -9.5 | 104.0 | 106.0 | -8.1
Cc1cnc(NC(=O)CSc2ccc(Cl)cc2)s1 | 52.0 | 105.0 | 109.0 | -6.3
COC(=O)c1ccc(Nc2ncnc3ccccc23)cc1 | x | 106.0 | 108.0 | 3.6
CCN(CC)S(=O)(=O)c1ccc(C(=O)Nc2nc(-c3ccc4c(c3)OCO4)cs2)cc1 | 9.6 | 101.0 | 102.0 | -42.3
CCC1NCCc2sccc21 (configuration not stated) | -3.0 | 99.0 | 102.0 | 0.3
CC(=O)NC(NCc1ccccc1)(C(F)(F)F)C(F)(F)F | -1.8 | 107.0 | 98.0 | 7.8
Cc1ccc(N2CC(C(=O)NCc3ccncc3)CC2=O)cc1C (configuration not stated) | -8.4 | 106.0 | 102.0 | -19.6
COc1cccc(CNCc2cccnc2)c1OCC(N)=O | -6.7 | 99.0 | 101.0 | -9.9
CC(Cc1ccccc1)N=c1nc2c(ncn2C)c(N)n1C (configuration not stated) | -3.0 | 102.0 | 104.0 | -1.6
CCOC(=O)C1CCN(C(=O)c2sc3cc(F)ccc3c2Cl)CC1 | -7.0 | 103.0 | 103.0 | x
Cn1c(=O)c2c(ncn2CC(=O)N/N=C/c2ccc(Br)s2)n(C)c1=O | 1.7 | 101.0 | 102.0 | -20.5
Cc1ccc(-c2c(C)n([O-])c(C)c(C)[n+]2=O)cc1 | 20.1 | 101.0 | 98.0 | -35.9
O=C(/C=C/c1ccccc1)Nc1ccc(Oc2ccc(F)cc2F)nc1 | -3.6 | 104.0 | 108.0 | -1.2
NS(=O)(=O)c1ccc(CNC(=O)CCC2CCCCC2)cc1 | 9.9 | 98.0 | 85.0 | -21.5
CN1C(=O)CC(=O)N(C)c2ccccc21 | 9.1 | 100.0 | 99.0 | -28.7
CCc1nnc(NC(=O)c2nn(-c3ccccc3)ccc2=O)s1 | -16.2 | 103.0 | 102.0 | 4.4
O=c1[nH]c(=S)n(CCc2ccccc2)c2c1CN(CCc1ccccc1)CN2 | -0.3 | 103.0 | 104.0 | 6.7
NC1=NC(=O)C(CC(=O)Nc2ccc(C(F)(F)F)cc2)S1 (configuration not stated) | 0.2 | 101.0 | 97.0 | x
COC(=O)[C@H]1[C@H]2C[C@H]3c4[nH]c5ccccc5c4CCN3C[C@@H]2CC[C@@H]1O | 2.0 | 99.0 | 105.0 | -1.0
COc1ccc(-c2nnc(SCc3cccc(C#N)c3)o2)cc1 | -7.4 | 106.0 | 100.0 | -23.6
Cc1nc2ccccc2nc1CSCc1n[nH]c(=O)[nH]1 | 2.2 | 103.0 | 87.0 | -69.1
CSc1ccccc1NC(=O)COC(=O)/C=C/c1ccco1 | 11.6 | 107.0 | 108.0 | -3.5
O=C(C1CCN(c2nc3ccccc3n3cccc23)CC1)N1CCc2ccccc21 | -1.2 | 104.0 | 107.0 | -16.6

The final 3 compounds of the section before lead into the next.
SMILES | MbtI inh | PV pol inh | PV pol inh intensity | MenB inh
Cc1nc2ccccc2nc1CSCc1n[nH]c(=O)[nH]1 | 2.2 | 103.0 | 87.0 | -69.1
CSc1ccccc1NC(=O)COC(=O)/C=C/c1ccco1 | 11.6 | 107.0 | 108.0 | -3.5
O=C(C1CCN(c2nc3ccccc3n3cccc23)CC1)N1CCc2ccccc21 | -1.2 | 104.0 | 107.0 | -16.6
CCN(CC)CCn1c2c(c(SCC(=O)Nc3nc(C)cs3)nc1=O)CCCC2 | -15.8 | 101.0 | 105.0 | -42.0
Nc1ccc(S(=O)(=O)Nc2ccnn2-c2ccccc2)cc1 | -7.7&-15.8 | 100.0&102.0 | 100.0&101.0 | 0.0&0.1
Cn1c(C(=O)NCc2ccccc2Cl)cc2oc3ccccc3c21 | -1.9 | 101.0 | 103.0 | -14.2
S=P1(N2CCOCC2)C2=C(CCC2)C2=C(CCC2)N1c1ccccc1 (configuration not stated) | 59.0 | 93.0 | 102.0 | 10.2
Cc1cccc(C(=O)Nc2ccc(O)cc2)c1 | 1.0 | 105.0 | 99.0 | -7.7
COc1ccc(-n2c(CCC(=O)O)nc3ccccc3c2=O)c(OC)c1 | -1.6 | 105.0 | 127.0 | -13.2
COc1ccc2c(C(=O)O)cc(=O)[nH]c2c1 | 134.4 | 101.0 | 106.0 | -30.7
COc1cccc2c1Oc1nn(-c3ccccc3)c(N)c1C2 | 78.8 | 101.0 | 105.0 | 15.9
COC(=O)CN(c1ccc(C(C)C)cc1)S(=O)(=O)c1c(C)[nH]c(=O)[nH]c1=O | -4.0 | 99.0 | 102.0 | -5.6
CCN(CC)CCSc1nc(CC(C)C)nc2c1c(=O)n(C)c(=O)n2C | 2.0 | 101.0 | 97.0 | 1.1
COC(=O)c1ccc2c(=O)[nH]c(COC(=O)c3ccc(Cl)c(N)c3)nc2c1 | -28.4 | 112.0 | 108.0 | -31.8
O=C(O)c1nn(CC(=O)N2N=C(c3ccc(Cl)cc3)CC2c2ccco2)c(=O)c2ccccc12 (configuration not stated) | 5.3 | 102.0 | 105.0 | -27.9
CCNC(=O)NC1(C(=O)Nc2ccc3c(c2)OCCO3)CCCCC1 | -0.8 | 101.0 | 100.0 | -11.3
COc1ccc(N/N=C(\C#N)C(=O)Nc2ccccc2C(=O)O)cc1Cl | -3.4 | 111.0 | 109.0 | -3.0
CCCCNC(=O)c1ccc2c(c1)NC(=O)C(CS(=O)(=O)Cc1ccccc1Cl)N2 (configuration not stated) | 109.2 | 103.0 | 110.0 | 13.5
CNC(C)C(=O)C12CC3CC(CC(C3)C1)C2 (configuration not stated) | -4.4 | 102.0 | 103.0 | -0.7
Cc1ccc(C(=O)CSc2ncn[nH]2)c(C)c1 | 70.0* | 101.0 | 100.0 | -1.7
CN(C)S(=O)(=O)c1ccc(C(=O)NCCC23CC4CC(CC(C4)C2)C3)cc1 | -6.5 | 103.0 | 106.0 | 4.2
CCN(CC)CCCC(C)Nc1c2ccc(Cl)cc2nc2ccc(OC)cc12 (configuration not stated) | -18.8&-12.1 | 66.0&66.0 | 183.0&191.0 | -2.6&-2.5
Cc1cc(C)cc(NC(=O)CN2CCN(S(=O)(=O)c3ccccc3)CC2)c1 | 9.3 | 104.0 | 103.0 | -27.5
CCOC(=O)/C(=C\c1cccs1)C(=O)CN1C(=O)c2ccccc2S1(=O)=O | 2.9 | 103.0 | 106.0 | -20.6
Cc1ccc(/C(O)=C2/C(=O)C(=O)N(CCCN(C)C)C23C(=O)N(C)c2ccccc23)cc1F (configuration not stated) | 3.2 | 101.0 | 102.0 | 14.4
CCc1ccc(Nc2nc(N)nc(-c3oc4ccccc4c3C)n2)cc1 | -2.8 | 103.0 | 104.0 | -19.2
CCOC(=O)/C=C1\SCC(=O)N1CCSc1nncn1-c1ccccc1 | -3.6 | 122.0 | 131.0 | -15.2
CCCCC/C=C\C[C@H](O)/C=C/C=C\C/C=C\CCCC(=O)O | -3.2 | 101.0&101.0 | 100.0&98.0 | 11.3
COc1ccc(/C=N/NC(=O)Nc2nonc2N)cc1 | 15.2 | 103.0 | 104.0 | -28.9
CCC(CO)NC(=S)Nc1ccsc1C(=O)OC (configuration not stated) | -3.0 | 104.0 | 109.0 | -15.7
NC(=O)c1cc2ccccc2oc1=O | x | 108.0 | 109.0 | -10.0
Cc1ccccc1S(=O)(=O)Cc1ccc(C(=O)N2CCc3ccccc32)o1 | 11.1 | 104.0 | 102.0 | -12.8
CCN1CCN(c2oc(COc3ccc(Cl)cc3)nc2C#N)CC1 | -8.8 | 101.0 | 100.0 | 9.2
O=c1[nH]c(NC2CCN(S(=O)(=O)c3ccccc3C(F)(F)F)CC2)nc2c1CCCC2 | -3.7 | 105.0 | 101.0 | -15.6
O=C(O)c1ccccc1SCC(=O)N1CCOCC1 | -3.5 | 99.0 | 101.0 | 6.3
O=C(Cc1csc(-c2ccccc2)n1)NC1CC1 | 17.8 | 108.0 | 95.0 | -36.0
COc1ccc(C(=O)CSc2nc(N)cc(=O)[nH]2)cc1OC | x | 102.0 | 97.0 | -31.6
O=C(Cn1ncc2ccc(Cl)cc21)NCc1ccccc1 | 9.9 | 100.0 | 102.0 | -5.3
O=C(CC1CC2CCC1C2)NC(c1ccccc1)c1ccccc1 (configuration not stated) | -4.8 | 104.0 | 110.0 | -4.8
N#Cc1ccc(CSc2ncn[nH]2)cc1 | 3.4 | 108.0 | 109.0 | 12.0
O=C1/C(=C/c2c[nH]c3ccccc23)CSc2ccccc21 | -7.9 | 105.0 | 112.0 | -42.7
COCc1nnc(NC(=O)C2CC(=O)N(CCc3ccc(F)cc3)C2)s1 (configuration not stated) | 70.7 | 101.0 | 102.0 | -54.0
CC(=O)NC(c1ccccc1)(c1ccccc1)C(F)(F)F | -8.4 | 103.0 | 107.0 | x
O=C(Nc1cccc(C(F)(F)F)c1)N1CCC(CN2CCOCC2)CC1 | 8.4 | 103.0 | 100.0 | -3.6
CCOc1cc(-n2cnnn2)c(OCC)cc1NC(=O)c1cc2cccc(OC)c2oc1=O | -10.6 | 99.0 | 102.0 | -28.8
N#Cc1ccccc1CS(=O)(=O)N1CCOCC1 | 0.4 | 99.0 | 103.0 | 11.5
CN=C(Nc1cc(C)nn1CCC#N)c1ccccc1 | 9.2 | 104.0 | 100.0 | 7.1
CSc1ncc(Cl)c(C(=O)Nc2c(C(=O)Nc3ccccc3)oc3ccccc23)n1 | 6.2 | 107.0 | 105.0 | -11.2
O=C(COc1cccc(-n2cnnn2)c1)N1CCCCCC1 | 5.7 | 101.0 | 100.0 | 6.2
O=C(c1ccc2c(c1)N(Cc1ccccc1)C(=O)CS2=O)N1CCCCC1 (configuration not stated) | -6.3 | 101.0 | 105.0 | 5.4
CCOC(=O)c1c(-c2ccccc2)oc2ccc(N(C(C)=O)S(=O)(=O)c3ccc(OC)cc3)cc12 | 110.9 | 101.0 | 103.0 | -27.2
N#Cc1ccc(-c2ccccc2)nc1SCCN1CCOCC1 | -1.1 | 100.0 | 103.0 | -27.7
Cc1nn(-c2ccccc2)c(C)c1CN=Cc1c(O)[nH]c(=O)[nH]c1=O | -4.9 | 99.0 | 104.0 | -38.1

Part of the list above in order of count of non-hydrogen atoms, smallest number first.
SMILES | MbtI inh | PV pol inh | PV pol inh intensity | MenB inh
CN=C(Nc1cc(C)nn1CCC#N)c1ccccc1 | 9.2 | 104.0 | 100.0 | 7.1
O=C(COc1cccc(-n2cnnn2)c1)N1CCCCCC1 | 5.7 | 101.0 | 100.0 | 6.2
N#Cc1ccc(-c2ccccc2)nc1SCCN1CCOCC1 | -1.1 | 100.0 | 103.0 | -27.7
Cc1nn(-c2ccccc2)c(C)c1CN=Cc1c(O)[nH]c(=O)[nH]c1=O | -4.9 | 99.0 | 104.0 | -38.1
O=C(Nc1cccc(C(F)(F)F)c1)N1CCC(CN2CCOCC2)CC1 | 8.4 | 103.0 | 100.0 | -3.6
CCOC(=O)c1c(-c2ccccc2)oc2ccc(N(C(C)=O)S(=O)(=O)c3ccc(OC)cc3)cc12 | 110.9 | 101.0 | 103.0 | -27.2

Continuation:
SMILES | MbtI inh | PV pol inh | PV pol inh intensity | MenB inh
Cc1ccc(-n2nnnc2SCC(=O)N2Cc3ccccc3CC2C(=O)O)cc1 (configuration not stated) | 16.8 | 103.0 | 100.0 | 14.4
CCN1/C(=C2\C(=O)N(c3ccccc3)N=C2C)C=Cc2cc(OC)ccc21 | -2.4 | 101.0 | 100.0 | -49.0
COc1cccc(-n2c(SCC(=O)Nc3ccc4[nH]c(=O)[nH]c4c3)nc3ccccc3c2=O)c1 | 3.0 | 105.0 | 107.0 | -4.8
CC(N)c1ccc(Br)cc1 (configuration not stated) | 2.1 | 100.0 | 103.0 | -10.6
Cc1[nH]c(=O)[nH]c(=S)c1C#N | 11.7 | 105.0 | 111.0 | -14.2
CC1=CC(=Nc2c(C)n(C)n(-c3ccccc3)c2=O)c2ccccc2C1=O | 4.8 | 101.0 | 105.0 | -1.5
O=C(Cc1ccc2c(c1)OCCO2)Nc1ccc(-c2nnc3n2CCCCC3)cc1 | -2.2 | 112.0 | 113.0 | -5.2
CC1CNCCN1S(=O)(=O)c1cccc2cnccc12 (configuration not stated) | -7.8 | 102.0&99.0 | 106.0&103.0 | 4.1
CCn1cc(Br)c(C(=O)Nc2ccccc2C(C)(C)C)n1 | -1.0 | 98.0 | 102.0 | 10.1
CC(C)N1C(=O)CCC1C(=O)NCCc1ccc(Cl)cc1 (configuration not stated) | 1.1 | 103.0 | 102.0 | 9.6

Screening results: PubChem, ICCB-Longwood Screening Facility, Harvard Medical School
